Assay outcomes (PubChem)
Beta apoptosis = inhibitors of cytokine-induced beta cell apoptosis, primary screen, luminescence; protection from apoptosis, % (concentration not given with the values); AID 435005, 2010; 300,000 compounds, 0.8% hits; INS-1E cytokine-induced death, ATP luminescence, 48 h; percent of positive-control rescue, neutral wells zero;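 active = all replicates at 75% or more, or half of them and the mean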;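 also: 0% = cytokine-treated negative control wells and 100% = positive control rescue; higher means more ATP so stronger rescue from cytokine killing; wells of about 40 µL received 100 nL stock; the first replicate is given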
FGF22 binding = binders of human FGF22 protein, primary screen, FGF22 synaptogenesis inhibitor project, biophysical, thermal shift, single point. recombinant FGF22 thermal shift, SYPRO orange fluorescence; percent of sucrose octasulfate shift, DMSO zero. calls only at 9.99 µM. 340,000 compounds, 1.5% hits;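 active = melting point raised past a set limit in the mean and every replicate; three in four hits are not shown here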
Target sequence (Q9HCT0 whole entry, looked up): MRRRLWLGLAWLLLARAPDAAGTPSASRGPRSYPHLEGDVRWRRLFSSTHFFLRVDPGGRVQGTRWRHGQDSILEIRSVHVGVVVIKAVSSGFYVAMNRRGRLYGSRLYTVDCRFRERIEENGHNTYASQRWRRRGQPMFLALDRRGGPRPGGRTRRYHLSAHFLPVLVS
Ecoli growth = E. coli growth inhibition, primary screen, OD600. AID 1053175, 2014. Escherichia coli growth, 23 h; stronger effect = lower value. 330,000 compounds, 0.21% hits. OD600 absorbance (no concentration beside the values);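 active = OD600 absorbance below the run mean of sample wells minus 3.6 SD, in any replicate, cut at about 0.56 in these data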;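 also: stock transfer was 300 nL into about 60 µL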
Bfl-1 A1 inh = caspase 3/7 activation in MEF A1-2A-BIM cells, primary screen, A1 inhibitor project, cell-based, luminescence, HTS; caspase activation, % (concentration not given with the values); Caspase-Glo 3/7 luminescence, 3 h; percent of clofoctol response, vehicle zero; AID 2462, 2010; 330,000 compounds, 0.066% hits;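 active = over half of replicate activation scores above 10%, or exactly half above 10 with the replicate mean above 10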;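 also: wells of about 30 µL received 50 nL stock; many hits fall short of the cut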
Ecoli rRNA inh = reduced GFP signal of wild-type E. coli, primary screen, bacterial rRNA inhibitor project, GFP/RFP fluorescence, OD600, single point | E. coli WT GFP vs humanized-ribosome RFP mutants, 24 h; stronger effect = lower value; DMSO median 0, no signal -100 | 350,000 compounds, 1.6% hits | GFP signal change (wild-type ribosome), % (concentration not given with the values);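 active = significant combined selectivity score with lowered wild-type GFP, culture density cut under 30%, mutant RFP and density less affected; inactive = any of these conditions unmet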; also: one replicate is shown; some compounds called inactive have numbers as strong as hits
AF4-AF9 inh = inhibitors of AF4 peptide binding to AF9, primary screen, biochemical, AlphaScreen, biotin-AF4 peptide, FLAG-AF9, single point; inhibition, % at 10 µM; 350,000 compounds, 0.47% hits; AID 651704, 2012;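 active = every replicate reaching a set inhibition limit, whatever the replicate mean, cut at about 25% in these data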;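 also: 0% = plate neutral control median and 100% = total signal loss; the record names both 10 and 1 µM as test concentration; the first replicate is given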
Target sequence (P42568 whole entry, looked up): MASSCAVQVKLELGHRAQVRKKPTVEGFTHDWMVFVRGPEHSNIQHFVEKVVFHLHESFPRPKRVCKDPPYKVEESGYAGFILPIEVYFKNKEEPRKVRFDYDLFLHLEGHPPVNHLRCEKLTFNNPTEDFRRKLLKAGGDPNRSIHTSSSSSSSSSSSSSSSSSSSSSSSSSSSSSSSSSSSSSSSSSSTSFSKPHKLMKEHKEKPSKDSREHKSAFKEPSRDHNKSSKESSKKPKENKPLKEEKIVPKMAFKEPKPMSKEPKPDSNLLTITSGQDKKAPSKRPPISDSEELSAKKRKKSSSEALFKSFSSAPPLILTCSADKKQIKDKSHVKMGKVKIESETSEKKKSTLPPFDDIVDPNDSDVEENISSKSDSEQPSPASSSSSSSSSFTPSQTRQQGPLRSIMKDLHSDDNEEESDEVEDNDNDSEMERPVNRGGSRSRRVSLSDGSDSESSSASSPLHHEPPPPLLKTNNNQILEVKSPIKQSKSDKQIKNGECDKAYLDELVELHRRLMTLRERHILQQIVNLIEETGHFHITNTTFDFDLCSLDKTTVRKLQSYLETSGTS
UCH37 DUB inh = inhibitors of human UCH37 deubiquitinase, primary screen, biochemical, Ub-AMC cleavage, fluorescence. 330,000 compounds, 0.33% hits. inhibition, % (test concentration not listed). purified proteasome/UCH37;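 active = mean of two replicates above 20%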;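 also: 0% = compound-free wells with enzyme and 100% = wells lacking proteasome; stock transfer was 100 nL into about 20 µL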
Target sequence (Q9Y5K5 whole entry, looked up): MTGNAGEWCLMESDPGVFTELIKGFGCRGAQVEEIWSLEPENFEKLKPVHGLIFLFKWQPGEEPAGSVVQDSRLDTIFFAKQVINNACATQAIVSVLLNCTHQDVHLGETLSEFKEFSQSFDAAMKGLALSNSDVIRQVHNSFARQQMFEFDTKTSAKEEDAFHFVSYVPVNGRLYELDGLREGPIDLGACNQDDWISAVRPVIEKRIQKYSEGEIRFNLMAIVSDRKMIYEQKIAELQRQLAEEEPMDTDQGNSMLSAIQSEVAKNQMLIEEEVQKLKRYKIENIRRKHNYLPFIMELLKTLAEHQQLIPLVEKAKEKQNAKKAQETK
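Assay system: Proteasome-bound UCH37. Buffer or medium: pH 7.4 Tris-HCl (50 mM) with ovalbumin, ATP-MgCl2, DTT. Incubation: 30 min preincubation with enzyme, 25 min cleavage at room temperature. Measured by: fluorescence, ex 355 nm, em 460 nm. Read-out basis: percent inhibition. Control set: wells without proteasome as full block, compound-free enzyme plus substrate as uninhibited.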
T cruzi repl = inhibitors of intracellular T. cruzi growth, primary screen, luminescence, NIH3T3 host cells | T. cruzi beta-gal in NIH3T3, 90 h | inhibition, % (test concentration not listed) | 300,000 compounds, 1.4% hits;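 active = mean inhibition across valid replicates above about 55%, limit read from the data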;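 also: signal also drops with host cell toxicity which is not excluded here; 0% = plate median of DMSO wells and 100% = zero luminescence signal; higher percent means less beta-gal luminescence so fewer parasites; stock transfer was 50 nL into about 50 µL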
Ecoli rRNA inh OD600 = second read-out of Ecoli rRNA inh, no call of its own (marks repeat the call); OD600 change, %; measured here: OD600 growth;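 optical density of the mix in the first replicate; 0 = DMSO median and -100 = no signal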
Ecoli rRNA inh RFP = second read-out of Ecoli rRNA inh, no call of its own (marks repeat the call); RFP signal change, %; measured here: RFP humanized mutant strains;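 first replicate; 0 = DMSO median and -100 = no signal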
Active calls of the source: *; i = inactive; . = not tested or not shown.

SMILES | Beta apoptosis | FGF22 binding | Ecoli growth | Bfl-1 A1 inh | Ecoli rRNA inh | Ecoli rRNA inh OD600 | Ecoli rRNA inh RFP | AF4-AF9 inh | UCH37 DUB inh | T cruzi repl
Cc1oc2ccc(NS(=O)(=O)c3ccccc3)cc2c1C(=O)Nc1ccccc1 | 6.9 | i | 0.7 | 0.4 | -16.3 | -11.5 | -1.2 | 0.0 | 2.3 | 0.7
CCOC(=O)c1ccc(-n2c(CC)nc3ccccc3c2=O)cc1 | -1.3 | . | 0.742 | 1.7 | . | . | . | . | 2.0 | -0.2
Cc1cccc(OCc2nnc(N)s2)c1C | -2.5 | . | 0.738 | -0.9 | . | . | . | . | -4.8 | .
Cc1cccc(NC(=O)CNC(=O)c2cn(Cc3ccccc3)nc2-c2cccnc2)c1C | -2.9 | i | 0.652 | -1.2 | -0.9 | 9.5 | 1.0 | -0.5 | 0.4 | .
CC(NC(=O)c1cccc(S(=O)(=O)N2CCN(C)CC2)c1)C1CC2CCC1C2 (centres undefined) | -5.5 | i | 0.714 | -0.1 | 6.7 | -6.2 | 2.8 | -0.6 | -1.3 | 3.0
CCOc1ccc(Br)cc1S(=O)(=O)NCCN1CCCC1 | -10.1 | i | 0.64 | 0.5 | 16.4 | 15.4 | -1.6 | 1.3 | 1.6 | -25.7
COCCC(=O)N1CCCC(CCC(=O)NCc2ccc(F)c(F)c2)C1 (centres undefined) | -4.2 | i | 0.706 | -0.7 | 10.0 | 11.2 | -0.5 | 0.5 | 0.4 | 4.6
COc1ccc(CCNC(=O)c2ccccc2Cl)cc1OC | -7.0 | i | 0.656 | -0.5 | 0.2 | -2.7 | -0.4 | -10.2 | 0.0 | -11.3
COC(=O)c1coc(-c2ccc(OC)cc2)c1C(=O)OC | -0.1 | . | 0.771 | -0.9 | . | . | . | . | -1.4 | 9.2
CN1CCC(N(C)C(=S)NC(=O)C23CC4CC(CC(C4)C2)C3)CC1 | -2.3 | i | 0.712 | 0.0 | 9.1 | 3.3 | 0.8 | -2.7 | 5.3 | 34.0
CC1(C)C2CCC13CS(=O)(=O)N[C@@H]3C2 (some centres undefined) | -5.3 | . | 0.75 | -0.1 | . | . | . | . | 3.9 | 3.8
CC(=O)c1cccc(NC(=O)c2noc3c2CCc2ccccc2-3)c1 | 3.5 | i | 0.71 | -1.6 | 13.5 | 9.1 | -1.4 | -12.7 | 3.8 | -0.7
O=C(NC1CCOC1)c1ccc(OC2CCN(CCc3ccccc3)CC2)cc1 (centres undefined) | 4.0 | i | 0.686 | -0.1 | 9.5 | -15.3 | -4.4 | 3.1 | 2.2 | -11.6
c1ccc(Cn2nnc3c(NCCN4CCOCC4)ncnc32)cc1 | 0.9 | i | 0.691 | -0.6 | 8.3 | -0.2 | -7.4 | 7.2 | 2.3 | -15.7
C=C(C)Cn1cnc2cc(C)c(C)cc21 | -3.4 | i | 0.678 | -0.4 | -1.9 | 0.0 | -3.6 | -4.2 | 4.2 | -31.1
COc1ccc(N2CCN(CCN3C(=O)c4ccccc4C3=O)CC2)cc1 | -1.7 | i | 0.718 | -1.1 | 3.9 | 10.6 | -3.0 | 1.9 | 4.2 | -10.2
O=C(COc1ccc([N+](=O)[O-])cc1)NCCc1nc2ccccc2[nH]1 | -2.7 | i | 0.658 | 0.2 | . | . | . | -0.4 | 4.7 | 37.1
Cc1nc(SCc2ccc(F)cc2)n[nH]1 | -5.6 | i | 0.674 | -3.1 | 5.3 | 8.5 | 2.1 | -1.6 | 2.8 | -14.0
COc1ccc(C2/C(=C(/O)c3ccc(S(=O)(=O)N4CCOCC4)cc3)C(=O)C(=O)N2CCN2CCOCC2)cc1 (centres undefined) | 4.5 | i | 0.637 | 1.0 | 2.1 | 7.5 | -0.8 | 0.1 | 8.5 | -12.4
CCCCc1n[nH]c2c1/C(=N/OCC)CC(C)(C)C2 | 0.6 | i | . | 0.8 | 1.5 | 12.9 | 0.0 | . | . | 10.4
O=C(O)CCCNC(=O)CCn1nnc2ccccc2c1=O | -10.7 | i | 0.662 | 0.4 | 11.6 | 4.9 | -5.8 | 1.6 | 3.4 | -4.1
CCC(=O)Nc1cccc(-n2nnnc2SCC(=O)N(C(C)C)C(C)C)c1 | -17.8 | i | 0.641 | -0.2 | 1.9 | 6.6 | -9.2 | -8.8 | 0.4 | 16.8
O=C(CSc1nc2ccccc2c(=O)[nH]1)Nc1ccc(N2CCOCC2)c(Cl)c1 | 6.9 | i | 0.729 | 0.1 | -5.1 | -3.2 | -2.3 | 2.8 | 3.2 | -9.4
CC(C)(C)NCC(O)COc1cccc2[nH]c(=O)[nH]c12 (centres undefined) | -3.9 | i | 0.718 | 0.7 | . | . | . | -4.2 | 0.2 | -21.7
CCCCOC(=O)c1ccc(NS(=O)(=O)c2cc(-c3nnnn3CC)ccc2OC)cc1 | 4.3 | . | 0.719 | 1.0 | . | . | . | . | 1.3 | -17.2

Quoted at random: 4 compounds from above
SMILES | Beta apoptosis | FGF22 binding | Ecoli growth | Bfl-1 A1 inh | Ecoli rRNA inh | Ecoli rRNA inh OD600 | Ecoli rRNA inh RFP | AF4-AF9 inh | UCH37 DUB inh | T cruzi repl
O=C(COc1ccc([N+](=O)[O-])cc1)NCCc1nc2ccccc2[nH]1 | -2.7 | i | 0.658 | 0.2 | . | . | . | -0.4 | 4.7 | 37.1
C=C(C)Cn1cnc2cc(C)c(C)cc21 | -3.4 | i | 0.678 | -0.4 | -1.9 | 0.0 | -3.6 | -4.2 | 4.2 | -31.1
O=C(O)CCCNC(=O)CCn1nnc2ccccc2c1=O | -10.7 | i | 0.662 | 0.4 | 11.6 | 4.9 | -5.8 | 1.6 | 3.4 | -4.1
CCOC(=O)c1ccc(-n2c(CC)nc3ccccc3c2=O)cc1 | -1.3 | . | 0.742 | 1.7 | . | . | . | . | 2.0 | -0.2

Other structures.
SMILES | Beta apoptosis | FGF22 binding | Ecoli growth | Bfl-1 A1 inh | Ecoli rRNA inh | Ecoli rRNA inh OD600 | Ecoli rRNA inh RFP | AF4-AF9 inh | UCH37 DUB inh | T cruzi repl
COc1ccc(NS(=O)(=O)c2cccc(C(=O)NCc3cccnc3)c2)cc1 | 0.7 | i | 0.714 | 1.7 | -0.6 | 2.5 | 6.4 | 10.9 | -2.2 | 0.7
CCOc1nc(C)ccc1-c1noc(-c2cccnc2)n1 | -1.0 | i | 0.693 | 1.0 | -1.9 | 5.8 | -1.6 | 1.2 | 4.2 | -5.9
CN(C)c1ccc(/C=N/N=C2/SC(CC(=O)O)C(=O)N2c2ccc(O)cc2)cc1 (centres undefined) | -0.2 | i | . | 0.3 | 2.9 | 4.5 | 1.2 | 1.2 | . | -9.6
CC(=O)Nc1cccc(/C(C)=N/NC(=O)c2ccc3c(c2)OCO3)c1 | -7.1 | . | . | -1.1 | -0.7 | 2.8 | -1.7 | -13.1 | . | -1.9
O=C(Nc1ccc(S(=O)(=O)N2CCCCC2)cc1)c1cnccn1 | 2.0 | . | 0.688 | 0.1 | . | . | . | . | -4.1 | -1.2
O=C(CN1C(=O)CSC1=O)N1CCc2ccccc2C1 | -3.0 | . | 0.702 | -0.2 | . | . | . | . | 8.9 | -3.6
CCOC(=O)Cn1cc(/C=N/NC(=O)c2cc3ccccc3o2)c2ccccc21 | 0.1 | i | . | -0.9 | -9.7 | -11.0 | 6.5 | -3.2 | . | 4.5
COc1ccc(NC(=S)NCCCN2CCCC2=O)c(OC)c1 | -0.3 | i | 0.71 | 0.4 | 14.3 | 12.9 | 0.4 | -4.3 | 2.6 | -12.2
O=C(/C=C/c1ccc[nH]1)c1ccc(F)cc1 | -1.6 | i | 0.717 | -3.3 | 9.2 | 8.9 | 5.4 | 0.6 | 3.0 | -15.7
COc1cccc(NC(=O)CSc2nc3scc(C)c3c(=O)[nH]2)c1 | 6.9 | i | 0.733 | 0.0 | 4.1 | 4.6 | 0.3 | -2.4 | -1.3 | 8.5
CCOC(=O)c1cccc(NC(=O)c2ccc(F)cc2F)c1 | -2.5 | . | 0.666 | -7.2 | . | . | . | . | 24.8* | -7.9
CCCCNc1cnn(-c2ccccc2)c(=O)c1Cl | -1.2 | i | 0.657 | 0.4 | 14.1 | 9.2 | 0.8 | -2.6 | 4.0 | 0.8
CCOC(=O)C1Nc2c(cc(C(F)(F)F)cc2[N+](=O)[O-])C2c3ccccc3CC12 (centres undefined) | -1.5 | . | 0.688 | -0.1 | . | . | . | . | 1.3 | 21.4
Cc1ccc(Cc2nnc(SCC(=O)Nc3ccccc3Cl)[nH]c2=O)cc1 | . | i | 0.642 | 0.5 | -1.3 | 6.9 | -0.4 | -0.7 | 5.8 | 3.8
CCCOC(=O)c1ccc(NC(=O)c2cc(OC)c(OC)c(OC)c2Br)cc1 | -5.7 | . | 0.715 | -0.5 | . | . | . | . | 1.0 | -12.4
COc1ccc(NC(=O)CN2C(=O)c3cccc4cccc2c34)c(OC)c1 | 0.7 | . | 0.651 | 0.2 | . | . | . | . | -335.8 | 4.2
COc1cc(C(=O)N2CCN(C(=O)c3ccco3)CC2)cc(OC)c1OC | 1.3 | . | 0.717 | -0.1 | . | . | . | . | 2.6 | 2.0
Nc1ncnc(Nc2cc(C(F)(F)F)cc(C(F)(F)F)c2)n1 | -3.3 | i | 0.642 | 0.0 | 2.0 | 4.7 | 0.4 | 1.2 | 6.0 | 11.5
Cc1ccc(OCC(=O)N2CCCCCCC2)cc1 | -6.2 | i | 0.601 | 0.1 | 12.2 | 11.2 | 1.0 | -2.1 | -6.2 | 3.9
COc1cc2ncnc(NCCCN3CCOCC3)c2cc1OC | -0.3 | i | 0.652 | 0.0 | 1.2 | 12.6 | 1.5 | -5.4 | 0.8 | -10.3
CC1CCCN(C(=O)COC(=O)C2=COCCO2)C1 (centres undefined) | -5.1 | i | 0.656 | -0.4 | 18.5 | 9.2 | 1.1 | 3.2 | -1.7 | .
Cn1c(C(=O)N2CCC(C(=O)NCc3ccccc3)CC2)cc2sccc21 | 3.2 | i | 0.67 | -0.1 | 2.1 | -2.4 | 1.7 | -2.4 | 0.6 | 14.4
COc1ccc([N+](=O)[O-])cc1NC(=O)C(C)c1ccccc1 (centres undefined) | -0.4 | . | 0.675 | 0.0 | . | . | . | . | 5.5 | 11.1
Cc1ccccc1/C=C/C12NC(=O)CN1c1ccccc1C2(C)C (centres undefined) | 3.3 | i | 0.69 | -0.1 | 2.8 | 2.4 | 13.7 | -1.5 | 1.5 | 3.1
CCC(C)n1c(SCC(=O)N(CC)c2c(N)n(Cc3ccccc3)c(=O)[nH]c2=O)nc2ccccc2c1=O (centres undefined) | . | i | 0.695 | . | 7.6 | 5.1 | -0.6 | -8.0 | 1.9 | .
Cn1nnnc1SCc1ccc(Cl)cc1 | -13.1 | . | 0.664 | -1.3 | 2.4 | -0.1 | -2.6 | -0.6 | 3.5 | 3.7

A portion of the library. The share of hits here may be higher or lower than overall.
